Ba CapD inh: Bacillus anthracis CapD inhibitors, primary screen, biochemical, fluorescence intensity; CapD gamma-glutamyltranspeptidase (Bacillus anthracis Ames Ancestor); purified CapD enzyme, fluorescence intensity read-out; hits give low values; some hits fall short of the stated cut; z-score (concentration not given with the values); 140,000 compounds, 0.23% hits; AID 492967, 2010;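 active = z-score under -4 in either of two replicates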;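 note: stock transfer was 100 nL into about 40 µL; score is relative to mean and spread of the plate; one replicate is shown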
AID504770: growth inhibition of E. coli YBA685, primary screen, V. cholerae RctB inhibitors | z-score (no concentration beside the values) | 130,000 compounds, 0.27% hits | E. coli YBA685 rctB-dependent plasmid, OD600 growth, 3 h; hits give low values;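 active = z-score under -2 on both plates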;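 note: wells of about 30 µL received 100 nL stock; score is relative to mean and SD of the test wells; the first replicate is given; strong numbers were not always called active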
* = called active by the depositor; x = not tested or not shown; & = joins results of further samples.

SMILES	Ba CapD inh	AID504770
Cc1nc2sc(C(c3cccs3)N3CC(C)CC(C)C3)c(O)n2n1 (centres undefined)	-0.84	1.1
CCN(C(=S)NC(=O)c1ccc(Br)o1)c1ccccc1	-1.3	-0.85
CC(CN(C)C)CN1c2ccccc2CCc2ccccc21 (centres undefined)	35&1.4	0
CCC(CC)C(=O)N1CCN(Cc2ccccc2)CC1	x	-0.25
CCNC(=O)COc1ccc(N(C)S(=O)(=O)c2ccc(Cl)cc2)cc1	x	-0.05
COc1ccccc1Nc1nc2ccccc2c2nncn12	2	0.5
COc1ccc(Cl)cc1NC=C1C(=O)OC2(CCCCC2)OC1=O	0.2	-0.6
N#Cc1cc2cc3c(cc2nc1SCc1cccnc1)OCCO3	x	0.1
COc1ccc(Cl)cc1-c1nc(-c2ccc(NC(=O)c3ccco3)cc2)no1	-0.08	x
N#CC1=C(N)n2c(s/c(=C\c3ccccc3I)c2=O)=C(C#N)C1c1ccccc1I (centres undefined)	0.18	x
O=C(NCCc1ccccc1)C1CC(=O)N(CCc2ccccc2)C(=Nc2ccc(F)cc2)S1 (centres undefined)	-0.7	-0.15
O=C(NCCc1c[nH]c2ccc(Cl)cc12)OCc1cc2c(cc1Cl)OCO2	-0.56	x
O=S1(=O)N=C(N(CCOc2ccccc2)CCOc2ccccc2)c2ccccc21	-0.06	x
COc1ccc(-c2nc3c(c(SC)n2)COC(C)(C)C3)cc1	-1	-1.1
C#CCOC(=O)Nc1cnccc1C(F)(F)F	0.42	0.15
CC(OC(=O)c1ccccc1NCc1ccco1)C(=O)Nc1ccc(Cl)cn1 (centres undefined)	x	0
CC(C)N1CC2=C(OC(N)=C(C#N)C2c2ccc(F)cc2)/C(=C/c2ccc(F)cc2)C1 (centres undefined)	-0.35	x
Cc1c(/C=N/NC(=O)Cc2cccs2)cc(C#N)n1C	x	-0.5
CC(NC(=O)c1ccc(Br)cc1)C1CCCO1 (centres undefined)	-0.18	1.4
COC(=O)c1ccccc1N(C)C(=O)c1cc2ccccc2oc1=O	0.92	-0.55
CSc1nc(-c2ccc(Cl)cc2)nc(N)c1C#N	0.34	-1.1
Cc1c(N=C/C=C/c2ccccc2)c(=O)n(-c2ccccc2)n1C	-0.28	-0.35
CCOc1ccc(-n2c3nc4ccccc4nc3c3c(=O)n(CCOC)cnc32)cc1	x	-1.1
CCC(CC)C(=O)N1CCN(c2ccccc2)CC1	0.35	-0.6
Cc1cc(C)c(CCOC(=O)NNC(=O)COc2cccc3c2OC(C)(C)C3)c(C)c1	-0.67	x
Cc1ccccc1-n1c(SCc2nc(N)nc(N)n2)nc2sc3c(c2c1=O)CCCCC3	x	-1.8
COc1ccc(C2C=C(c3ccccc3)Nc3nc(C(F)(F)F)nn32)cc1 (centres undefined)	52	x
CCCN1C(=O)CCS(=O)(=O)c2ccccc21	x	-0.05
NC(=O)N=Nc1c(O)[nH]c2ccccc12	x	1.1
c1ccc(Nc2nnc(-c3ccc(-c4nc5ccccc5s4)s3)o2)cc1	x	0
O=C(c1cc(-c2ccccc2)n[nH]1)N1CC=C(c2ccccc2)CC1	-1	0.6
C#CCn1c(=NC(=O)c2ccc(S(=O)(=O)N3CCCC3)cc2)sc2cc3c(cc21)OCO3	x	-0.45
O=C(C1CCCCC1)N1CCN(c2cccc3[nH]ccc23)CC1	0.51	-0.1
COc1ccc(CNC(=O)c2cnn3c2NC(c2ccc(C)cc2)CC3C(F)F)cc1OC (centres undefined)	x	-0.05
COCCNC(=O)c1cc(S(=O)(=O)N2CC(C)CC(C)C2)ccc1Sc1ccc(Br)cc1 (centres undefined)	-0.32	x
COc1ccc(C(=O)Oc2ccc(C(c3c(C)[nH]n(-c4ccccc4)c3=O)c3c(C)[nH]n(-c4ccccc4)c3=O)cc2)cc1	0.075	x
CS(=O)(=O)c1ccc(Oc2ccc(NC(=O)C3CC3)cc2)c(NC(=O)C2CC2)c1	-0.095	x
COCCN1C(=O)/C(=C/c2c(N3CCN(CCO)CC3)nc3ccccn3c2=O)SC1=S	-1.7	x
CCNC(=O)/C=C/c1ccc(Cl)c(Cl)c1	x	-0.4
Clc1ncnc2[nH]ncc12	x	-0.05
Cc1cc2c(c(=O)o1)C(c1ccc(F)cc1)C(C#N)=C(N)O2 (centres undefined)	0.18	1.1
O=C(NC1CCCCC1)c1ccc2sc3ccccc3n12	-0.065	x
CC(=O)c1ccc(NC(=O)c2cc3nc(-c4ccc([N+](=O)[O-])cc4)cc(C(F)(F)F)n3n2)cc1	-0.1	x
Nc1ccccc1C(=O)N1CCC(c2c[nH]c3ccccc23)CC1	5.6	x
N#CSc1sc(N)nc1-c1ccccc1	0.45	0.4
Cn1c(=O)n(C)c2cc(/C=N/NC(N)=S)ccc21	x	0.1
O=C(NCCSCc1ccccc1)c1ccc(N2CC3CC(C2)c2cccc(=O)n2C3)c(NC(=O)c2ccc(F)cc2)c1 (centres undefined)	-0.19	x
Nc1cccc(C(=O)Nc2ccc3nc(-c4ccccn4)[nH]c3c2)c1	1.4	-1.8
CC(C)NC(=S)N1CCN(S(=O)(=O)c2cccc(C(F)(F)F)c2)CC1	x	-0.45
CC(=O)n1cccc1C#N	-0.67	2.3

New compounds follow.
SMILES	Ba CapD inh	AID504770
Cc1cn(CCC(=O)O)c2ccccc12	0.4	x
CCOC(=O)CC1COc2ccccc2N1C(=O)c1ccc(F)cc1 (centres undefined)	0.065	-0.4
COC(=O)c1ccc(NS(=O)(=O)c2cc(Cl)ccc2OC)cc1	-0.33	2.7
CC1(C)Cc2ccccc2C(CSc2nc3c(c(C(F)(F)F)n2)CCCC3)=N1	0.29	0.15
Cc1cc(N)n(-c2ccccc2C(F)(F)F)n1	1.1	-0.1
CCN(CC)c1nc(Nc2cc(C)ccc2C)nc(Nc2ccccc2OC)n1	-0.3	-0.35
COC(=O)c1ccccc1NC(=O)C(C)N(c1ccccc1)S(C)(=O)=O (centres undefined)	1.7	-0.55
O=C(NCC(=O)N1CCN(c2ccccc2)CC1)c1c(F)cccc1F	-0.28	x
C=CCSc1nc(C)c2cc(C)cc(C)c2n1	-0.03	-0.25
CC(C)c1ccc(NC(=O)Cn2cccc2)cc1	37	-1.1
CSC(=S)N(C=O)c1ccc(C)cc1	x	-0.95
O=C(Nc1ccc(-c2nc3ccccc3[nH]2)cc1)c1cc(-c2ccco2)nc2ccccc12	x	1.1
CCOC(=O)C1=C(C)NC2=C(C(=O)C(C(=O)OCC)C(c3ccc(OC)cc3)C2)C1c1cc(OC)ccc1OC (centres undefined)	5.5	x
CCCCNC(=O)c1sc2nc(C)nc(N3CCN(C)CC3)c2c1C	3.8	x
CSC1=C(C#N)C(=O)NC(c2ccc(Cl)cc2Cl)S1 (centres undefined)	-1	-0.4
COc1ccc(/C=C2\N=C(c3c(-c4ccccc4)noc3C)OC2=O)c(OC)c1OC	-1.4	x
COc1ccc(-n2ncc(C(=O)NCCc3ccccn3)c2C)cc1	0.18	0.5
CCOC(=O)c1ccc(N=Cc2ccc(CC)cc2)cc1	0.48	-0.15
COC(=O)CN1C(=S)N(c2ccccc2)C(=O)/C1=C/c1ccc(-c2ccc(Cl)cc2)o1	-0.16	-0.1
N#CC1(C#N)C(c2ccc(Cl)c(Cl)c2)C1(C#N)C#N	-0.33	-6.8*
COc1ccccc1Nc1nc(Nc2cccc(C(F)(F)F)c2)nc(N2CCOCC2)n1	x	0.2
COc1cccc(CNC(=O)CCCN2C(=O)COc3ccc(C)cc32)c1	-0.05	-1.1
CN=c1scc(-c2ccccc2)n1/N=C/c1ccsc1	x	0.5
Cc1ccc(C(=O)ON=C2CCN(S(=O)(=O)c3ccccc3)CC2)cc1	-0.095	x
Cc1ccc(S(=O)(=O)Nc2ccccc2Oc2ccccc2)cc1	-2.2	-1.5
Cc1oc2ncn(C)c(=O)c2c1C(=O)OCc1c(F)cccc1Cl	x	-0.05
Cc1ccc(S(=O)(=O)N(CC(O)Cn2c3ccccc3c3ccccc32)c2ccccc2C)cc1 (centres undefined)	3.9	x
COc1ccc(N)c(Sc2ccc(Cl)cc2)n1	14	x
COc1ccc(C(=O)c2c[nH]cc2-c2ccc(C)cc2)cc1OC	-0.38	-0.1
O=C(NCC(=O)N1CCCCC1)c1ccccc1	x	-0.15
CC(=O)NN(C)c1ccc(C(F)(F)F)cc1NC(=O)c1sc2ccccc2c1Cl	-1.7	x
COc1ccc(CCNC(=O)c2ccc3c(c2)NC(=O)/C(=C\c2ccc(C)cc2)S3)cc1OC	13	2.2
CCC(C)[C@@H](C(=O)Nc1ccc2c(c1)OCO2)N1Cc2ccccc2C1=O (some centres undefined)	0.52	-0.75
COc1ccccc1CCOC(=O)NNC(=O)Cn1cnc(Cl)c1Cl	0.11	x
CC(C)(O)C#Cc1ccc(C2NCCS2)cc1 (centres undefined)	-0.45	-0.7
Oc1ccc2ccccc2c1CN1CCCC(C(F)(F)F)C1 (centres undefined)	x	-0.35
O=C(OCCN1CCN(Cc2ccc([N+](=O)[O-])cc2)CC1)N1CCN(C(c2ccccc2)c2ccc(Cl)cc2)CC1 (centres undefined)	-1.4	x
COc1cc(C)nc2nc(S(C)(=O)=O)nn12	0.4	-0.35
CC1CC(Nc2ccccc2)c2ccccc2N1C(=O)c1cccnc1 (centres undefined)	0.65	x
Cc1cc(C)nc(N(C(=O)C2CC2)c2ccc(OC(F)(F)F)cc2)n1	-0.16	x

Entries shown so far that have two or more sulfur atoms, in the order listed:
SMILES	Ba CapD inh	AID504770
Cc1nc2sc(C(c3cccs3)N3CC(C)CC(C)C3)c(O)n2n1 (centres undefined)	-0.84	1.1
Cc1ccccc1-n1c(SCc2nc(N)nc(N)n2)nc2sc3c(c2c1=O)CCCCC3	x	-1.8
c1ccc(Nc2nnc(-c3ccc(-c4nc5ccccc5s4)s3)o2)cc1	x	0
C#CCn1c(=NC(=O)c2ccc(S(=O)(=O)N3CCCC3)cc2)sc2cc3c(cc21)OCO3	x	-0.45
COCCNC(=O)c1cc(S(=O)(=O)N2CC(C)CC(C)C2)ccc1Sc1ccc(Br)cc1 (centres undefined)	-0.32	x
COCCN1C(=O)/C(=C/c2c(N3CCN(CCO)CC3)nc3ccccn3c2=O)SC1=S	-1.7	x
N#CSc1sc(N)nc1-c1ccccc1	0.45	0.4
CC(C)NC(=S)N1CCN(S(=O)(=O)c2cccc(C(F)(F)F)c2)CC1	x	-0.45
CSC(=S)N(C=O)c1ccc(C)cc1	x	-0.95
CSC1=C(C#N)C(=O)NC(c2ccc(Cl)cc2Cl)S1 (centres undefined)	-1	-0.4
CN=c1scc(-c2ccccc2)n1/N=C/c1ccsc1	x	0.5

Further structures:
SMILES	Ba CapD inh	AID504770
O=C(CCc1nc2cccnc2n1-c1ccccc1)NCCc1ccccc1	2.8	0.9
COC(=O)c1sc(NC(=O)C2c3ccccc3Oc3ccccc32)nc1C	0.08	-0.1
COc1ccc(OC(=O)c2cn(-c3ccccc3)nc2SC)cc1	-0.41	2
CCOc1cc(C(c2c(C)n(C)n(-c3ccccc3)c2=O)c2c(C)n(C)n(-c3ccccc3)c2=O)cc(Br)c1O	-0.48	x
CS(=O)(=O)N1CCN(S(C)(=O)=O)CC1	x	-0.7
C=CCNc1nc2c([nH]c3ccccc32)s1	0.055	-0.7
O=C(O)c1cc(NNC(=S)NC2CCCCC2)ccc1Cl	x	0.5
O=S(=O)(NC1CCN(Cc2ccccc2)CC1)c1cccs1	0.79	0
C=CCN(CC=C)Cc1c(C)[nH]c2ccc(Br)cc2c1=O	0.4	0
CCOC1CCCCC1NS(=O)(=O)c1ccc(Cl)cc1 (centres undefined)	-0.55	0.5
Cc1ccc(CN(C)C(=O)c2cc3c(C)nn(-c4ccc(F)cc4)c3s2)o1	x	-0.6
COc1cccc(CCNC(=O)OCCc2ccccc2F)c1	0	x
COC(=O)C1=C(C(=O)OC)SC(=C2C(=S)C(C)(C)N(C(C)=O)c3c(C)cc(C)cc32)S1	-0.31	x
CCOC(=O)c1cc2cccnc2nc1C(F)(F)F	-0.47	x
CCc1ccc(NC(=O)N2CCCCC2C)cc1 (centres undefined)	-0.33	-0.35
Cc1ccc(Sc2ccc(C3(c4ccccc4)C=Cc4c(ccc5ccccc45)O3)cc2)cc1 (centres undefined)	-0.15	x
Cc1cccc(-n2c(=O)c3c(n4cnnc24)-c2ccccc2CC32CCCCC2)c1	-0.61	x
CC(=O)Oc1cc(-c2cccc(C(F)(F)F)c2)c2oc(=O)sc2c1	-0.34	-0.1
CSc1nc2c(=S)[nH]c(=S)[nH]c2s1	-5.5*	-1.1
CCC(COC(=O)NNC(=O)c1sc(-c2ccc(C(F)(F)F)cc2)nc1C)c1ccccc1 (centres undefined)	4.7	x
CCS(=O)(=O)Nc1ccc(OC)c(Cl)c1	-0.57	-0.35
CCOC(=O)c1cc(-n2cccc2)ccc1N1CCCCC1	-0.46	-0.75
CCc1c(N)n[nH]c1C	x	-1.1
CC1SC(=NC(=O)c2ccco2)NC1=O (centres undefined)	x	1.4
COc1ccc(CCNc2ncnc3c2cnn3-c2ccc(F)cc2)cc1OC	-0.05	-1.5
N#CSc1ccc(Nc2cc(N3CCCCC3)c3nonc3c2[N+](=O)[O-])cc1	-0.065	x
CCC(=O)Nc1ccc(-c2nnc3n2CCCCC3)cc1	-0.18	-0.25
Cc1cc(COC(=O)C23CCC(=O)N2c2ccccc2C(=O)N3C2CC2)no1 (centres undefined)	x	-0.8
COc1ccc(C2(O)CN(c3ccccc3)C3=[N+]2CCS3)cc1 (centres undefined)	0.72	x
CCN(c1ccccc1)S(=O)(=O)c1ccc(N2CCN(CC(=O)N3CCCCCC3)CC2)nc1	x	0.25

High-throughput results: PubChem BioAssay, ICCB-Longwood Screening Facility, Harvard Medical School

Compounds were not picked by outcome; overall some 0.37% were active at least once.
